# Vaccinia inh – Vaccinia orthopox stage-specific inhibition; activity change (mCherry), % (test concentration not listed); AID 1053133; 89,000 tested, 0.01% active; Vaccinia-infected cells, mCherry/Venus stage reporter fluorescence; hits give low values; some inactives read as strong as hits;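 active = mCherry past -33% and 40 or more points under the early reporter, replicates agreeing; inconclusive = past -33% without that gap or agreement; tested in A549 cells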;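 also: scaled between vehicle wells and reference inhibitor wells; 23 nL library stock went into each well; one replicate is shown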
# Vaccinia inh Venus – further read-out of Vaccinia inh, marked with its call; activity change (Venus), %; measured here: Venus reporter, other viral stage;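 negative = less Venus signal; first of two replicates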
# Starred values were filed as active, the others as inactive; ? = inconclusive; . = no result given; & = joins results of further samples.
SMILES,Vaccinia inh,Vaccinia inh Venus
C[C@H](CO)N1C[C@H](C)[C@H](CN(C)C)Oc2ncc(C#CCN(C)C)cc2C1=O,16&27,17&18
CC(C)NC(=O)Nc1ccc2c(c1)C(=O)N([C@H](C)CO)C[C@@H](C)[C@@H](CN(C)S(=O)(=O)c1cccs1)OCCCC[C@@H](C)O2,-2,1
C[C@H](CO)N1C[C@H](C)[C@@H](CN(C)C(=O)c2ccccc2)OCCCC[C@H](C)Oc2ccc(NC(=O)Nc3ccc(C(F)(F)F)cc3)cc2C1=O,9,-3
CC(C)NC(=O)N(C)C[C@@H]1Oc2cc(C#CC3CC3)ccc2S(=O)(=O)N([C@@H](C)CO)C[C@H]1C,7,-4
Cc1ccccc1S(=O)(=O)N1CC(=O)N2[C@H](CO)[C@@H](c3ccc(C#CCC(C)C)cc3)[C@@H]2C1,-8,-5
COc1ccc(S(=O)(=O)N(C)C[C@@H]2Oc3ccc(NS(C)(=O)=O)cc3C(=O)N([C@H](C)CO)C[C@@H]2C)cc1,20,6
COc1ccc(S(=O)(=O)Nc2cccc3c2O[C@H](CN(C)C(=O)NC2CCCCC2)[C@H](C)CN([C@@H](C)CO)C3=O)cc1,-8,-5
CCC(=O)N1[C@@H](CO)[C@@H](c2ccc(-c3cccc(F)c3)cc2)[C@@H]1CN(C)C(C)=O,1,7
O=C(CCN1CCCCC1)NCC[C@H]1CC[C@@H](NC(=O)C2CCC2)[C@H](CO)O1,1,11
Cc1noc(C)c1S(=O)(=O)Nc1cccc2c1O[C@@H](CN(C)Cc1ccc(C(=O)Nc3ccccc3N)cc1)[C@@H](C)CN([C@H](C)CO)C2=O,15,10
COc1cccc(-c2cn(CC[C@H]3CC[C@H](NC(=O)CC4CC4)[C@@H](CO)O3)nn2)c1,-9,15
CNC[C@@H]1Oc2cc(-c3ccccc3OC)ccc2S(=O)(=O)N([C@H](C)CO)C[C@H]1C,4,5
COCC(=O)Nc1ccc2c(c1)C(=O)N(C)C[C@H](OC)[C@@H](C)CN(Cc1ccccn1)[C@H](C)CO2,4,5
CC(C)C(=O)Nc1ccc2c(c1)C(=O)N(C)[C@H]1CC[C@@H](CC(=O)NCc3ccc(F)cc3)O[C@@H]1CO2,-15,-7
C=CCN1C(=O)[C@@]2(Cc3ccccc3)N=C(c3ccc(OCCCO)cc3)O[C@H]2c2ccccc21,-10,-6
C[C@@H]1CCCCO[C@H](CN(C)C(=O)CCCN(C)C)[C@H](C)CN([C@H](C)CO)C(=O)c2cc(NC(=O)Nc3cccc4ccccc34)ccc2O1,0,-5
CN1C(=O)c2cc(NC(=O)c3cccc(F)c3)ccc2OC[C@H]2O[C@H](CC(=O)NCC3CCCCC3)CC[C@H]21,?,.
C[C@@H](NC(=O)[C@@H]1N[C@@H]2c3ccc(-c4cccnc4)c(=O)n3C[C@@H]2[C@H]1CO)c1ccccc1,10,0
COc1ccc2c3c([nH]c2c1)[C@H](CO)N(Cc1ccc(F)cc1)CC31CCN(C(C)=O)CC1,2,-5
CS(=O)(=O)N1CC(=O)N2[C@@H](CO)[C@H](c3ccc(C#Cc4ccc(F)cc4)cc3)[C@@H]2C1,12,11
COc1ccccc1CNC(=O)C[C@H]1C[C@@H]2c3cc(NC(=O)C4CCC4)ccc3O[C@@H]2[C@@H](CO)O1,-3,2
COC(=O)C[C@H]1CC[C@@H]2[C@H](COC[C@H](O)CN2S(=O)(=O)c2ccc(F)cc2)O1,7,1
CC(C)CC#Cc1ccc2c(c1)O[C@H](CN(C)Cc1ccccc1F)[C@@H](C)CN([C@H](C)CO)S2(=O)=O,?,.
COc1cccc(S(=O)(=O)N[C@H]2C=C[C@@H](CC(=O)NC3Cc4ccccc4C3)O[C@@H]2CO)c1,-1,-3
C[C@H](O)C#Cc1ccc([C@@H]2[C@H]3CN(CC4CCOCC4)CCCCN3[C@H]2CO)cc1,9,5
COc1ccc(S(=O)(=O)Nc2ccc3c(c2)C(=O)N([C@H](C)CO)C[C@@H](C)[C@@H](CN(C)C(=O)NC(C)C)OCCCC[C@@H](C)O3)cc1,2,0
COc1ccc(S(=O)(=O)Nc2ccc3c(c2)C(=O)N([C@H](C)CO)C[C@H](C)[C@H](CN(C)C(=O)Nc2c(C)noc2C)O3)cc1,9,-1
CCC(=O)N1[C@H](CO)[C@H](c2ccccc2)[C@@H]1CN(CC)C(=O)c1ccc(F)cc1,12,8
COC(=O)[C@H]1[C@H](CO)[C@H]2Cn3c(ccc(-c4cccnc4)c3=O)[C@@H]1N2CCc1ccccc1,5,7
C[C@@H]1CN([C@@H](C)CO)C(=O)c2cccc(NC(=O)NC3CCCCC3)c2O[C@@H]1CN(C)S(=O)(=O)c1ccc(F)cc1,-30,-27

# In a second layout: entries from further up.
# Order of results: Vaccinia inh | Vaccinia inh Venus
- COc1cccc(S(=O)(=O)N[C@H]2C=C[C@@H](CC(=O)NC3Cc4ccccc4C3)O[C@@H]2CO)c1
 : -1 | -3
- CS(=O)(=O)N1CC(=O)N2[C@@H](CO)[C@H](c3ccc(C#Cc4ccc(F)cc4)cc3)[C@@H]2C1
 : 12 | 11

# Following part.
SMILES,Vaccinia inh,Vaccinia inh Venus
COc1ccc(S(=O)(=O)Nc2ccc3c(c2)C(=O)N([C@@H](C)CO)C[C@@H](C)[C@@H](CN(C)C(=O)Nc2c(C)noc2C)OCCCC[C@@H](C)O3)cc1,14,7
COCC(=O)N1C[C@H](C)[C@H](OC)CN(C)C(=O)c2cc(NC(=O)c3ccccc3)ccc2OC[C@H]1C,5,-4
C[C@H]1CN([C@@H](C)CO)S(=O)(=O)c2ccc(C#CC3(O)CCCC3)cc2O[C@@H]1CN(C)C(=O)c1ccncc1,14,7
COCC(=O)Nc1ccc2c(c1)OC[C@H](C)N(Cc1ccccc1F)C[C@H](C)[C@@H](OC)CN(C)C2=O,-34,-30
O=C(Cc1ccccc1)N1CCCCN2[C@H](CO)[C@H](c3ccc(C#CC4(O)CCCC4)cc3)[C@@H]2C1,-19,-7
CC(C)OC(=O)N(C)C[C@@H]1OCc2cnnn2CCCC(=O)N([C@H](C)CO)C[C@@H]1C,6,9
CCNC(=O)C[C@H]1C=C[C@H](NC(=O)C2CC2)[C@H](CO)O1,7,12
C[C@H](CO)N1C[C@H](C)[C@H](CN(C)C)Oc2cc(-c3ccccc3)ccc2S1(=O)=O,1,4
C[C@@H]1CN([C@@H](C)CO)S(=O)(=O)c2ccc(C#CC3CC3)cc2O[C@@H]1CN(C)C(=O)c1cccnc1,18,5
COc1ccccc1CNC(=O)C[C@H]1CC[C@H]2[C@@H](COc3ccc(NS(=O)(=O)c4ccc(C)cc4)cc3C(=O)N2C)O1,-11,0
C[C@@H]1CN([C@@H](C)CO)C(=O)c2cc(NS(=O)(=O)c3ccc(Cl)cc3)ccc2O[C@@H]1CN(C)CC1CC1,-8,-2
Cc1noc(C)c1S(=O)(=O)Nc1ccc2c(c1)C(=O)N([C@H](C)CO)C[C@@H](C)[C@@H](CN(C)C(=O)CCC(F)(F)F)OCCCC[C@@H](C)O2,-14,-10
CO[C@H]1CN(C)C(=O)c2ccc(NC(=O)Nc3c(C)noc3C)cc2OC[C@@H](C)N(CC2CC2)C[C@H]1C,6,9
O=C(Cc1ccccn1)NCC[C@@H]1CC[C@H](NC(=O)c2ccccc2F)[C@@H](CO)O1,3,7
CC(C)C#Cc1cnc2c(c1)C(=O)N([C@@H](C)CO)C[C@@H](C)[C@H](CN(C)C(=O)C1CCC1)O2,-8,-8
COCC#Cc1ccc([C@@H]2[C@H](CO)N3CCCCN(Cc4cccnc4)C[C@@H]23)cc1,11,1
O=C(Cc1ccccn1)N[C@@H]1CC[C@@H](CCNC(=O)c2cc(Cl)cc(Cl)c2)O[C@@H]1CO,-4,5
C[C@H]1CCCCO[C@H](CN(C)C(=O)C2CCCCC2)[C@@H](C)CN([C@@H](C)CO)C(=O)c2cc(NC(=O)NC3CCCCC3)ccc2O1,?,.
COc1ccc2c3c([nH]c2c1)[C@@H](CO)N(S(C)(=O)=O)CC31CN(CC2CCOCC2)C1,-16,-14
Cc1noc(C)c1S(=O)(=O)Nc1ccc2c(c1)C(=O)N([C@H](C)CO)C[C@H](C)[C@@H](CN(C)S(=O)(=O)c1c(C)noc1C)OCCCC[C@H](C)O2,-4,-12
C[C@@H]1CCCCO[C@H](CN(C)S(C)(=O)=O)[C@H](C)CN([C@@H](C)CO)C(=O)c2cc(NS(=O)(=O)c3ccc(Cl)cc3)ccc2O1,0,-4
Cc1ccc(S(=O)(=O)N(C)C[C@H]2OCCCC[C@@H](C)Oc3ccc(NC(=O)Nc4ccc(F)cc4)cc3C(=O)N([C@H](C)CO)C[C@H]2C)cc1,-4,5
CCC(=O)Nc1ccc2c(c1)OC[C@@H](C)N(CC1CCOCC1)C[C@H](C)[C@H](OC)CN(C)C2=O,14,6
N#C[C@H]1[C@H](c2ccc(C#Cc3ccccc3F)cc2)[C@@H](CO)N1C(=O)C1CCCCC1,-27,-26
O=C(C1CCOCC1)N1[C@@H](CO)[C@@H](c2ccccc2)C12CN(Cc1cccnc1)C2,18,11
COc1cccc(S(=O)(=O)N(C)C[C@@H]2Oc3ncc(C#CCC(C)C)cc3C(=O)N([C@@H](C)CO)C[C@@H]2C)c1,-24,-17
C[C@H](CO)N1C[C@H](C)[C@H](CN(C)Cc2ccc3c(c2)OCO3)Oc2c(NS(=O)(=O)c3ccc(F)cc3)cccc2C1=O,0,9
CCCC(=O)Nc1ccc2c(c1)C(=O)N(C)C[C@@H](OC)[C@@H](C)CN(CCC(F)(F)F)[C@@H](C)CO2,-4,-1
COc1ccccc1C#Cc1ccc2c(c1)O[C@@H](CN(C)C)[C@H](C)CN([C@@H](C)CO)S2(=O)=O,?,.
C[C@@H]1CN([C@H](C)CO)C(=O)c2cc(NS(=O)(=O)c3cn(C)cn3)ccc2O[C@H]1CN(C)Cc1ccccc1,12,11

# 7 compounds out of the list, ordered by number of heavy atoms, descending.
SMILES,Vaccinia inh,Vaccinia inh Venus
C[C@H]1CCCCO[C@H](CN(C)C(=O)C2CCCCC2)[C@@H](C)CN([C@@H](C)CO)C(=O)c2cc(NC(=O)NC3CCCCC3)ccc2O1,?,.
C[C@@H]1CCCCO[C@H](CN(C)S(C)(=O)=O)[C@H](C)CN([C@@H](C)CO)C(=O)c2cc(NS(=O)(=O)c3ccc(Cl)cc3)ccc2O1,0,-4
C[C@H](CO)N1C[C@H](C)[C@H](CN(C)Cc2ccc3c(c2)OCO3)Oc2c(NS(=O)(=O)c3ccc(F)cc3)cccc2C1=O,0,9
C[C@@H]1CN([C@H](C)CO)C(=O)c2cc(NS(=O)(=O)c3cn(C)cn3)ccc2O[C@H]1CN(C)Cc1ccccc1,12,11
CCC(=O)Nc1ccc2c(c1)OC[C@@H](C)N(CC1CCOCC1)C[C@H](C)[C@H](OC)CN(C)C2=O,14,6
N#C[C@H]1[C@H](c2ccc(C#Cc3ccccc3F)cc2)[C@@H](CO)N1C(=O)C1CCCCC1,-27,-26
O=C(C1CCOCC1)N1[C@@H](CO)[C@@H](c2ccccc2)C12CN(Cc1cccnc1)C2,18,11

# Going on with the list:
SMILES,Vaccinia inh,Vaccinia inh Venus
C[C@H]1CN([C@@H](C)CO)C(=O)Cc2cc(NC(=O)CCCCCC(=O)Nc3ccccc3N)ccc2O[C@H]1CN(C)Cc1ccccc1,?,.
C/C=C/c1ccc([C@H]2[C@@H](CO)N(C(C)=O)[C@H]2CN(CCOC)C(C)=O)cc1,-5,2
CO[C@H]1CN(C)C(=O)c2cc(NC(=O)Nc3cccc(F)c3)ccc2OC[C@H](C)NC[C@@H]1C,-17,-8
CS(=O)(=O)Nc1ccc2c(c1)[C@H]1C[C@@H](CC(=O)NCCc3ccccc3)O[C@@H](CO)[C@H]1O2,4,3
CNC[C@H]1Oc2ccc(NC(=O)CCC(F)(F)F)cc2C(=O)N([C@@H](C)CO)C[C@@H]1C,10,4
CCCNC(=O)N[C@H]1CC[C@H](CC(=O)NCCc2ccccc2)O[C@H]1CO,-2,-6
C[C@@H]1CN([C@@H](C)CO)S(=O)(=O)c2ccc(C3=CCCCC3)cc2O[C@@H]1CN(C)C(=O)CC1CC1,-35,-29
C[C@@H]1CCCCO[C@@H](CN(C)Cc2ccc(C(F)(F)F)cc2)[C@@H](C)CN([C@@H](C)CO)C(=O)c2cc(NS(=O)(=O)c3cccs3)ccc2O1,?,.
C[C@@H]1CN([C@@H](C)CO)C(=O)Cc2cc(NC(=O)Nc3ccc(F)cc3)ccc2O[C@@H]1CN(C)C(=O)Nc1ccc2c(c1)OCO2,29,27
C[C@@H]1CN([C@@H](C)CO)C(=O)c2cc(Br)cnc2O[C@H]1CN(C)C(=O)c1ccccc1F,17&18,19&15
CCCNC(=O)N1CC(=O)N2[C@H](C1)[C@@H](c1ccc(C#CCC3CCCC3)cc1)[C@@H]2CO,?,.
CCCC#Cc1ccc([C@@H]2[C@@H](CO)N3C(=O)CN(C(=O)c4ccccc4)C[C@@H]23)cc1,-24,-16
C[C@@H]1CN([C@@H](C)CO)C(=O)CCCn2nncc2CO[C@H]1CN(C)S(=O)(=O)c1cccc(F)c1,28&10,15&2
CCC(=O)N1C[C@H]2[C@@H](c3ccccc31)[C@@H](CO)N2C(=O)Nc1ccccc1,-1,3
C[C@H]1CN([C@@H](C)CO)C(=O)c2cc(C#Cc3ccccc3F)cnc2O[C@H]1CN(C)S(C)(=O)=O,9,1
C[C@@H]1CN([C@@H](C)CO)C(=O)c2cc(C#CCN(C)C)cnc2O[C@H]1CN(C)S(=O)(=O)c1cn(C)cn1,21,7

# Not all compounds are listed; rates above refer to the full screens.
